# High-throughput results from PubChem BioAssay.
# BJeLR viability – kills HRASV12-expressing BJeLR cells. inhibition, % (test concentration not listed). AID 1554. BJeLR (HRASV12) viability, CellTiter-Glo ATP luminescence, 48 h; reference of the scale not given here. hit rate 0.17% among 300,000;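 active = replicate mean above 50%; inconclusive = above 50% but judged a plate artefact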;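 note: 50 nL library stock added to about 25 µL; numbers are from one replicate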
# Sa ugtP lethal – kills S. aureus RN4220 lacking UgtP. growth inhibition, % (test concentration not listed). hit rate 0.54% among 330,000. S. aureus RN4220 ugtP deletion, OD600 growth, 16 h; some inactives read as strong as hits. AID 1259309;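 active = z-score under -3 and OD600 up to 0.15 on both plates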;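 note: plate controls were untreated wells for no effect and antibiotic for full effect; wells of about 80 µL received 100 nL stock; the first replicate is given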
# PrP UTR inh – suppresses PrP 5' UTR mRNA reporter expression; cell-based PrP 5' UTR mRNA reporter, plate reader; inhibition, % (concentration not given with the values); hit rate 0.35% among 340,000; AID 488862;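 active = every replicate at 50% or more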;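 note: 0 = median of the neutral control wells; tested in H4 reporter cells; numbers are from one replicate; inactives centre near -14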
# RN4220 kill – kills Staphylococcus aureus RN4220; inhibition, % (test concentration not listed); hit rate 0.33% among 330,000; S. aureus RN4220 growth, OD600, 16 h;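 active = z-score of -3 or lower and OD600 up to 0.18 on both plates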;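 note: plate controls were untreated cells for no effect and reference antibiotic for full effect; stock transfer was 100 nL into about 80 µL; one replicate is shown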
# Autofluor counter – flagged as autofluorescent in microsphere protease counterscreen. fluorescence intensity (no concentration beside the values). hit rate 3.1% among 360,000. compound autofluorescence counterscreen, microsphere flow cytometry; hits give high values. AID 624483;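 active = at least 3 SD above the mean of all compounds, about 16000 in these data; inconclusive = too few beads counted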;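 note: 100 nL of 1 mM stock went into each well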
# Mtb hypoxia inh – Mtb hypoxia fluorescent reporter inhibition; M. tuberculosis hypoxia-regulated fluorescent reporter, fluorescence; fluorescence inhibition, % (test concentration not listed); hit rate 0.1% among 300,000; AID 1159583;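 active = 35 to 45% if threefold the growth effect, above 45% if 1.5-fold the growth effect; inactive = the rest, general growth blockers included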;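 note: wells of about 50 µL received 100 nL stock; 0% = vehicle wells and 100% = reference inhibitor wells; whole bacteria with a GFP reporter of the hypoxia response; strong numbers were not always called active; many hits fall short of the cut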
# Mtb hypoxia inh growth – recorded beside Mtb hypoxia inh, whose call it bears; growth inhibition, %; measured here: M. tuberculosis growth (absorbance);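 0% = vehicle and 100% = reference antibiotic; read after six days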
# * = called active by the depositor; ? = inconclusive; . = not tested or not shown.
SMILES,BJeLR viability,Sa ugtP lethal,PrP UTR inh,RN4220 kill,Autofluor counter,Mtb hypoxia inh,Mtb hypoxia inh growth
Cc1cccc(C(=O)NC(C(=O)Nc2ccc(S(=O)(=O)Nc3nccs3)cc2)C(C)C)c1 (stereo unspecified),.,-0.1,-19.9,2.7,4115,0.2,6.7
COc1cccc(-c2ncc3ccccc3c2COC(=O)c2ccc(C(F)(F)F)cc2)c1,.,8.3,-9.2,6.2,4386,11.8,14.2
O=C(NC1CCCCC1)N1CCN(c2ncccn2)CC1,-4.3,-0.1,-19.7,1.7,23207*,1.6,14.0
Cc1cc(S(=O)(=O)N2CCCC2)ccc1OCC(=O)NCc1ccco1,-0.3,-0.6,-14.7,3.0,7674,15.0,6.1
C#CC(C)(C)NC(=O)c1cnc(-c2ccccc2)nc1-c1ccccc1,-9.5,5.6,-24.7,10.0,4109,17.5,0.2
Cc1ccc(C(=O)NCCSC(C)(C)C)cc1,0.7,3.1,1.9,1.6,2722,.,.
CC(=O)Nc1cc2c(cc1[N+](=O)[O-])-c1ccccc1C2O (stereo unspecified),.,-12.2,1.4,-4.4,4206,9.8,21.3
COc1ccc2c(c1)c(=O)c(C(=O)c1ccc(F)cc1)cn2CC(=O)Nc1ccc(F)cc1,4.3,-8.1,-4.8,-0.5,5067,0.3,0.0
CNCC1Oc2c(NS(=O)(=O)c3cccs3)cccc2C(=O)N(C(C)CO)CC1C (stereo unspecified),.,-7.7,.,3.1,.,4.2,10.7
Cc1ccc(OCCC(=O)NNC(=O)c2ccc(Br)cc2)cc1,.,-4.9,-30.0,1.5,3863,-5.7,-3.1
CCN(CC)c1ccc2ccc(=O)oc2c1,-1.7,-4.1,-7.2,5.7,4645,9.7,11.9
CC(C)Oc1ccc(S(=O)(=O)N2CCOCC2)cc1NC(=O)Cc1ccsc1,.,-2.7,-13.9,1.8,3161,1.0,2.0
O=C(NCCc1ccccc1F)C1CCC(=O)N(CCCN2CCCC2=O)C1 (stereo unspecified),-1.3,11.0,-4.5,2.8,3295,14.6,4.7
Fc1cccc(CN2CCSCC2)c1,3.8,8.7,-13.3,5.0,2949,-5.6,-8.4
CCOC(=O)c1c(NC(=O)COC(=O)CNC(=O)c2ccc(Cl)cc2Cl)sc(C(=O)N(C)C)c1C,-5.8,0.6,-19.1,0.3,6448,-1.3,6.4

# Two records drawn at random from the list so far:
SMILES,BJeLR viability,Sa ugtP lethal,PrP UTR inh,RN4220 kill,Autofluor counter,Mtb hypoxia inh,Mtb hypoxia inh growth
Cc1cc(S(=O)(=O)N2CCCC2)ccc1OCC(=O)NCc1ccco1,-0.3,-0.6,-14.7,3.0,7674,15.0,6.1
Cc1cccc(C(=O)NC(C(=O)Nc2ccc(S(=O)(=O)Nc3nccs3)cc2)C(C)C)c1 (stereo unspecified),.,-0.1,-19.9,2.7,4115,0.2,6.7

# Structures from the list above that have two or more sulfur atoms, in the order listed:
SMILES,BJeLR viability,Sa ugtP lethal,PrP UTR inh,RN4220 kill,Autofluor counter,Mtb hypoxia inh,Mtb hypoxia inh growth
Cc1cccc(C(=O)NC(C(=O)Nc2ccc(S(=O)(=O)Nc3nccs3)cc2)C(C)C)c1 (stereo unspecified),.,-0.1,-19.9,2.7,4115,0.2,6.7
CNCC1Oc2c(NS(=O)(=O)c3cccs3)cccc2C(=O)N(C(C)CO)CC1C (stereo unspecified),.,-7.7,.,3.1,.,4.2,10.7
CC(C)Oc1ccc(S(=O)(=O)N2CCOCC2)cc1NC(=O)Cc1ccsc1,.,-2.7,-13.9,1.8,3161,1.0,2.0

# Continuation.
SMILES,BJeLR viability,Sa ugtP lethal,PrP UTR inh,RN4220 kill,Autofluor counter,Mtb hypoxia inh,Mtb hypoxia inh growth
COc1ccc(-c2cc(-c3ccc(N)cc3)nc(N)c2C#N)cc1OC,6.6,22.7,-1.1,5.8,4759,-0.7,2.0
Clc1nc(-c2ccccn2)nc2scc(-c3ccccc3)c12,-0.6,55.8,-16.4,12.2,8442,-0.7,2.9
Cc1ccc2nc(/C=C/c3cccc(F)c3)ccc2c1,-7.2,14.6,-123.9,-0.4,2460,14.2,-1.3
CCCc1nnc(NC(=O)CCC(=O)NCc2ccccc2Cl)s1,3.7,-2.1,5.6,-5.0,5598,-13.3,-8.8
O=C(Nc1ccc(Br)cn1)c1ccc2nccnc2c1,2.1,-2.6,-73.6,1.7,2850,.,.
CC1C(c2cccs2)=[N+]([O-])C(C)(C(=O)c2cccs2)N1O (stereo unspecified),-23.7,0.4,-12.8,3.7,1913,1.4,0.0
COCCNC(=S)N(CCO)Cc1cc2cc3c(cc2[nH]c1=O)OCCO3,-1.7,1.0,4.7,1.7,3859,21.0,3.2
COc1ccc(CC(=O)NN=C(C)c2cccnc2)cc1,.,1.4,.,-0.5,.,6.2,5.4
CC(C)(CNC(=O)c1ccccc1NS(C)(=O)=O)N1CCCCC1,2.6,5.4,-12.8,2.8,4014,6.8,-4.2
C/C(=N\N(c1ccccc1)c1ccccc1)c1ccc(O)cc1,-3.0,.,-11.7,.,3945,.,.
Cc1csc(NC(=O)C2CCN(S(=O)(=O)c3ccccc3F)CC2)n1,-2.7,16.1,-22.4,4.7,4529,4.6,13.3
CCCN(CCC)CCCNC(=O)C1CCN(S(=O)(=O)c2cccc3nsnc23)CC1,-5.0,.,-18.1,.,4232,.,.
O=C(Nc1ccc(S(=O)(=O)N2CCCC2)cc1)c1ccc([N+](=O)[O-])cc1,-1.9,9.6,-17.7,1.7,4480,0.3,-0.4
CCOC(=O)c1ccc(NC(=O)CSC2=NC(=O)C(CC)C(=O)N2)cc1 (stereo unspecified),7.5,11.1,-19.2,6.0,16464*,-3.1,-5.0
CCc1ccc(NC(=O)CSc2nc3ccccc3c(=O)n2CCCC(=O)N2CCCC2)cc1,-7.4,-1.6,-10.0,3.2,15464,-0.1,-5.9
Cc1noc(C)c1CSc1nnc(-c2ccncc2)n1-c1ccc(Cl)c(Cl)c1,-3.2,-2.4,-16.4,1.8,2599,.,.
O=C1CCC2c3ccc4ccccc4c3CCN12 (stereo unspecified),-7.8,-7.2,-52.9,9.4,20473*,7.2,12.3
CN1CCOc2cc(S(=O)(=O)NCc3ccc(S(N)(=O)=O)cc3)ccc21,-2.1,2.7,-15.9,1.5,6115,5.5,-6.5
Cc1cc2ccccc2n1CCNC(=O)COc1ccccc1,0.2,-12.2,-19.5,-11.6,1122,-1.6,17.9
O=C(Nc1ccc(Cl)cc1)c1cc(-c2cccs2)on1,-7.4,2.4,-14.3,4.9,4278,1.1,-5.3
COc1ccc(CC(=O)NNC(=O)c2nn(Cc3ccccc3)c(=O)c3ccccc23)cc1OC,14.8,1.2,-38.8,1.4,4673,4.8,14.5
O=C(N/N=C/CCc1ccccc1)c1ccccc1,-0.7,.,-8.6,.,3143,.,.
Cc1ccc(S(=O)(=O)CCC(=O)Nc2ccc(S(=O)(=O)N(C)C)cc2)cc1,1.3,1.5,.,-0.9,.,7.9,-0.3
Cc1nn(C)c(N)c1[N+](=O)[O-],-11.9,5.8,-17.1,1.6,5493,-4.6,5.9
Cc1ccc(NS(=O)(=O)c2ccc(C(=O)NCCCN3CCOCC3)cc2)cc1,-0.9,-2.4,-24.5,-1.2,.,-4.5,3.4
Cc1ccc(S(=O)(=O)c2nc(NN(C)C)sc2Cl)cc1,6.6,17.8,-17.2,4.0,4390,6.9,3.7
Cc1cc(NC(=O)c2cc(-c3cccc(Cl)c3)on2)no1,3.8,-1.7,-27.2,3.1,10572,-1.7,8.2
COC(=O)c1ccc(OCC(O)CNC2CCCC2)cc1 (stereo unspecified),-1.2,12.8,-27.9,-0.3,3389,-2.5,-1.0
Cc1ccc(C)c(OCCNc2ccc([N+](=O)[O-])cn2)c1,3.9,3.4,-53.9,3.7,3761,10.2,3.6
N#Cc1c(-c2cccc(F)c2)cc(-c2ccccc2)nc1Br,-9.2,-28.6,-15.7,19.7,4646,-1.7,6.1

# An excerpt from above in order of molar mass, falling:
SMILES,BJeLR viability,Sa ugtP lethal,PrP UTR inh,RN4220 kill,Autofluor counter,Mtb hypoxia inh,Mtb hypoxia inh growth
COc1ccc(CC(=O)NNC(=O)c2nn(Cc3ccccc3)c(=O)c3ccccc23)cc1OC,14.8,1.2,-38.8,1.4,4673,4.8,14.5
CNCC1Oc2c(NS(=O)(=O)c3cccs3)cccc2C(=O)N(C(C)CO)CC1C (stereo unspecified),.,-7.7,.,3.1,.,4.2,10.7
Cc1noc(C)c1CSc1nnc(-c2ccncc2)n1-c1ccc(Cl)c(Cl)c1,-3.2,-2.4,-16.4,1.8,2599,.,.

# (next part)
SMILES,BJeLR viability,Sa ugtP lethal,PrP UTR inh,RN4220 kill,Autofluor counter,Mtb hypoxia inh,Mtb hypoxia inh growth
CC1CCN(C(=O)CSc2nnc(Cn3c(=O)sc4ccccc43)n2C)CC1,6.3,3.8,-16.9,-0.4,6188,.,.
Cc1ccc(C)c(S(=O)(=O)Nc2cc3c4c(c2)CC(=O)N4CCC3)c1,12.9,-6.0,-10.2,-1.7,?,-6.2,-3.9
COc1ccc(CNC2CCCCC2C)c(OC)c1 (stereo unspecified),.,1.4,-16.6,3.1,22181*,5.0,10.8
Cc1ccc(NC(=O)COC(=O)c2ccc[n+]([O-])c2)c(Br)c1,.,-2.6,-7.6,1.3,3089,-3.3,-1.7
COC(=O)CCc1ccc(O)cc1,5.8,7.4,7.0,2.5,5502,.,.
CCC(C)(C)NC(=O)C(c1ccc(C)cc1)N(Cc1cccnc1)C(=O)c1csnn1 (stereo unspecified),-1.9,-5.9,-6.0,-2.8,10264,-3.2,-0.6
O=c1[nH]nc(-c2ccc(F)cc2)cc1Cc1cccs1,-3.2,-5.5,-9.4,1.9,3530,15.9,0.0
CCCC[C@@H]1CNCCN1CCc1cccc2ccccc12,4.1,.,1.5,.,3435,.,.
COc1cccc(CNC(=O)CCn2ccc3cc(S(=O)(=O)N4CCCC4)ccc32)c1,-3.1,-3.2,6.6,0.2,6189,-4.2,3.4
Cc1nc2nc(C)c(CCC(=O)Nc3ccc4c(c3)OCO4)c(C)n2n1,-5.3,2.9,-15.1,-2.9,10737,2.8,7.7
COc1ccccc1N(CC(=O)NC1CCCC1)C(=O)c1csnn1,2.8,0.9,-3.6,3.1,3998,4.3,4.8
CN(C(=O)c1ccc2c(c1)OCO2)C1(C(=O)NC2CCCC2)CCCCC1,1.0,-2.7,-18.1,-0.9,4164,.,.
O=C(CN1CCN(S(=O)(=O)c2ccc(Br)cc2)CC1)N/N=C/c1cccnc1,1.3,.,-13.6,.,2379,.,.
CCc1ccc(/C=C/C(=O)c2ccc(S(=O)(=O)N(C)C)cc2)cc1,3.9,2.2,-13.0,4.0,6837,9.2,18.8
CCC(=O)N1CCN(c2ccc(Cl)cc2NC(=O)c2ccc3c(c2)OCCO3)CC1,1.4,2.5,-10.5,-5.2,9469,-1.9,3.9

# Outcome played no part in choosing rows; about 4% have a hit in one of these screens.
